From PubChem BioAssay
KCNQ2 enhance: potentiators of rat KCNQ2 potassium channel; O88943; CHO-K1 KCNQ2, FluxOR thallium flux fluorescence; hits give high values; B-score at 10 µM; 0.54% of 310,000 active; AID 2239;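 active means fluorescence ratio B-score at least 3 SD of library B-scores, with initial fluorescence B-score within 3 SD, cut at about 5.3 in these data; same plate scores as AID 2156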;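 further: B-score of peak minus minimum over baseline fluorescence ratio after K+ and Tl+ stimulus; positive B-score means potentiation of KCNQ2 with more thallium influx and brighter signal; only the inactives scoring about 0 or higher are listed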
Target sequence (O88943 whole entry, looked up): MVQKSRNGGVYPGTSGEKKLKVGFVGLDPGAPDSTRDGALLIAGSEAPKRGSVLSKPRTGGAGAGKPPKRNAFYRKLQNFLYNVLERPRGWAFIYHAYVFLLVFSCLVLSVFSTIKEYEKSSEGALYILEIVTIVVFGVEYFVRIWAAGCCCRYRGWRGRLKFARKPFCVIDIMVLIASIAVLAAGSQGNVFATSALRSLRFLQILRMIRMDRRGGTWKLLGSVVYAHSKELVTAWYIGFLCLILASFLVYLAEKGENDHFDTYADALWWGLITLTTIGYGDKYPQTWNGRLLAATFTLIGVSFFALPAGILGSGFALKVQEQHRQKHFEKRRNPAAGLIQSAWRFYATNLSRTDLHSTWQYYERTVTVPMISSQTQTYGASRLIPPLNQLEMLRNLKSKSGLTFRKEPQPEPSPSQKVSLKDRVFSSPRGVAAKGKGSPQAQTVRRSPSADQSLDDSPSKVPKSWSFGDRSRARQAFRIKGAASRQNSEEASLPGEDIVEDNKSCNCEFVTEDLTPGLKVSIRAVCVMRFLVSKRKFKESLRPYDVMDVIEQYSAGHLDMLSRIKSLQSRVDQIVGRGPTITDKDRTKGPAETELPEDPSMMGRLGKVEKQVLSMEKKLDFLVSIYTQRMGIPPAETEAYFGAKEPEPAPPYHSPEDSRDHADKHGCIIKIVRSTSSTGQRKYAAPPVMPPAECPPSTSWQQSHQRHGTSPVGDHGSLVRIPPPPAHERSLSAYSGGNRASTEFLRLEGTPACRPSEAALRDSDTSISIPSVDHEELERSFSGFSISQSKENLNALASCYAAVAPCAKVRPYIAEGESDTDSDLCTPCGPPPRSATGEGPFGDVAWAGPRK
KCNQ2 enhance baseline: also measured in KCNQ2 enhance; calls as there; B-score; compound at 10 µM; measured here: initial fluorescence intensity artifact check;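 brightness before thallium and not channel activity; 0 = typical well and far values either way flag optical interference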
* hit, by the source's call; . = no result given; ! = repeats disagree. An excerpt (hit frequency here may not be typical).

Preview, 5 compounds:
SMILES	KCNQ2 enhance	KCNQ2 enhance baseline
COC(=O)c1cccc(NC(=S)NC(C)C)c1	0.03	-0.59
COCc1cc(=O)[nH]c(/N=C(\N)Nc2cccc(C)c2)n1	1.2	0.49
COc1ccc(NC(=S)N2CCN(c3ncccn3)CC2)c(OC)c1	0.03	0.08
COc1ccc(Nc2ncccc2C(=O)O)cc1	0.78	-0.54
COC(=O)c1ccc(N(C(=O)CNC(=O)c2ccco2)C(C(=O)NCC2CCCO2)c2ccc(OC)c(OC)c2)cc1 (stereo not drawn)	1.1	-1.6

Results (from the top)
SMILES	KCNQ2 enhance	KCNQ2 enhance baseline
COC(=O)c1cccc(NC(=S)NC(C)C)c1	0.03	-0.59
COCc1cc(=O)[nH]c(/N=C(\N)Nc2cccc(C)c2)n1	1.2	0.49
COc1ccc(NC(=S)N2CCN(c3ncccn3)CC2)c(OC)c1	0.03	0.08
COc1ccc(Nc2ncccc2C(=O)O)cc1	0.78	-0.54
COC(=O)c1ccc(N(C(=O)CNC(=O)c2ccco2)C(C(=O)NCC2CCCO2)c2ccc(OC)c(OC)c2)cc1 (stereo not drawn)	1.1	-1.6
CCOC(=O)c1c(-c2ccc(OC)cc2)csc1NC(=O)C1CCCO1 (stereo not drawn)	0.01	-0.01
O=C(CN(C(=O)CCC(=O)Nc1ccccn1)c1ccc2c(c1)OCO2)NCc1ccc(F)cc1	0.9	0.19
CCN(CC)c1nc2ccccc2[nH]1	0.17	1.1
CCc1ccc(NC(=O)C2CCCCC2C(=O)O)cc1 (stereo not drawn)	0.17	1.4
O=C(O)CC(O)(CC(=O)O)C(=O)O	2.3	-0.27
O=C(c1ccco1)N1C2C=CC(C2)C1(C(F)(F)F)C(F)(F)F (stereo not drawn)	0.11	0.53
CCCn1c(SCCN2C(=O)c3ccccc3C2=O)n[nH]c1=O	0.47	-0.17
CC1CC2C3CCC4=CC(=O)C=CC4(C)[C@@]3(Cl)C(O)CC2(C)C1(O)C(=O)CO (stereo partly drawn)	0.44	-0.52
C=CCOc1ccc(CNC(C)(C)CO)cc1OC	0.87	0.37
CC(C)NC(=O)/C(=C/c1cn(-c2ccccc2)nc1-c1cccc([N+](=O)[O-])c1)NC(=O)c1ccccc1	1.5	-1.6
Cc1nn(-c2ccccc2)c2nc(=O)n(-c3ccccc3)cc12	0.94	0.52
COc1ccccc1NS(=O)(=O)c1cc(C(=O)N2CCCCCCC2)ccc1C	0.97	0.4
C=CCn1c(C(C)NC(=O)c2cccc(C)c2)n[nH]c1=S (stereo not drawn)	0.5	-0.5
CCCOc1ccc(C(=O)CCCC(=O)c2ccc(OCCC)cc2)cc1	0.56	-1.3
O=C(C1CCCN1S(=O)(=O)c1ccc(Cl)cc1)N1CCOCC1 (stereo not drawn)	0.62	1.9
CCCn1c(N)c(CC)c(=O)[nH]c1=O	1.4	0.45
Cc1cccn2c(CN3CCSCC3)c(C(=O)N3CCOCC3)nc12	0.3	1.1
COc1cccc(CN2CCSCC2)c1	1.5	0.63
Cn1cc(CN2CCN(CCc3ccccc3)C(CCO)C2)cn1 (stereo not drawn)	0.95	-0.04
C=CCn1c(SCC(=O)Nc2ccccc2F)nnc1C(C)NC(=O)c1ccccc1F (stereo not drawn)	1.8	-0.62
CC(=O)N1CCc2cc(S(=O)(=O)CCC(=O)Nc3cc(C)cc(C)c3)ccc21	0.15	-0.37
CCOC(=O)C1(CCOC)CCN(Cc2ccc(C3CCCCO3)s2)CC1 (stereo not drawn)	1.7	-0.58
CCOC(=O)c1c(N)sc(C(=O)N(C)C)c1C	0.39	-1.4
CCOc1ncccc1C(=O)N1CCCSC1=Nc1ccccc1OC	1.5	-2.3
COC(=O)CCC(=O)Nc1ccc(S(=O)(=O)N2CCc3ccccc32)cc1	0.03	-1.4
CCOc1ccc(NC(=O)Cn2cc(C(=O)CC)c3ccccc32)cc1	1	-0.02
O=C(O)C1CCN(C(=O)CSc2nc3ccccc3s2)CC1	0.83	0.16
N#CC[C@H](Cc1ccccc1)N1CCN(CCc2ccccc2)CCC1=O	0.01	0.02
COc1ccccc1Nc1ncc(C(=O)Nc2ccc(OC)c(OC)c2)c2ccccc12	1	0.06
CC(C)OCCCn1c(=O)c2ccccc2n2c(CCC(=O)O)nnc12	1.6	-0.08
CC(=O)Nc1ccc(S(=O)(=O)Nc2ccc3c(c2)OCCO3)cc1Cl	3.3	0.01
Cc1ccc(C)c(OCC(=O)Nc2ccccc2C(=O)N2CCN(C)CC2)c1	2.2	1.6
Cc1nn(C(=O)c2cccnc2)c(C)c1Sc1ccccc1	0.57	-0.72
COc1ccc(CCC(C)N(C)Cc2ccccc2)cc1 (stereo not drawn)	1.8	-0.83
O=C(c1cccs1)c1coc2ccc(O)c(CN(CCO)CCO)c12	1.1	-2.3
O=C(Cc1ccccc1)Nc1ccc(Cl)cn1	1	-1.3
CN(Cc1ccccc1)C(=O)COC(=O)c1cc([N+](=O)[O-])ccc1N1CCOCC1	0.01	0.08
CCc1nc(SCC(=O)N2CCCCC2)c2c(=O)n(C)c(=O)n(C)c2n1	9.1*	-1.7*
NS(=O)(=O)c1ccc(CCNC(=O)CSc2nc3ccsc3c(=O)n2C2CC2)cc1	0.78	-0.02
Cc1c(OCC(=O)N[C@@H](Cc2ccccc2)C(=O)O)ccc2c3c(c(=O)oc12)CCC3	2.6	0.24
O=C(Nc1ncccc1Cl)C1COc2ccccc2O1 (stereo not drawn)	1.6	0.21
Cc1n[nH]c(C)c1S(=O)(=O)N1CCCC(C(=O)N2CCc3ccccc32)C1 (stereo not drawn)	1.6	0.61
Cc1cccc(CSc2nc(N)c(C#N)c(-c3cccs3)c2C#N)c1	0.27	-0.43
O=c1[nH]n(-c2ccccc2)c(=O)c(Cl)c1Cl	2.2	-1.2
CCN(CC)S(=O)(=O)c1ccc2[nH]c(=O)c3ccccc3c2c1	2.5	-0.55
COc1ccc(C2/C(=C(/O)c3ccc(C)cc3)C(=O)C(=O)N2C)c(OC)c1 (stereo not drawn)	0.3	0.88
Cc1ccc(C)c2c1sc(=NC(=O)CN1C(=O)CCC1=O)n2C	0.62	-0.1
C=CCNC(=O)c1cc2c(C(F)(F)F)nn(C)c2s1	0.12	1.4
CCN(CC(=O)Nc1c(F)cccc1F)C(=O)c1ccc(C(=O)c2ccccc2)cc1	0.1	0.88
COc1ccc(N2CCN(C(CNC(C)=O)c3ccco3)CC2)cc1 (stereo not drawn)	1.7	-1.3
O=C(O)c1cc(Cl)c(Cl)cc1C(=O)Nc1cccc2cccnc12	0.97	-2.4
Cc1ccc(OC(C)C(=O)Nc2ccncc2)cc1C (stereo not drawn)	1.1	-0.04
Cc1ccc(C(=O)NC(C#N)=C(Cl)Cl)cc1	1.6	0.89
O=[N+]([O-])c1ccc(C[n+]2cc(-c3ccccc3)n3c2CCCCC3)cc1	0.17	-1.8
CN(Cc1ccccc1)C(NC(=O)c1ccco1)C(Cl)(Cl)Cl (stereo not drawn)	0.56	-0.29

Later entries:
SMILES	KCNQ2 enhance	KCNQ2 enhance baseline
OCCC1CN(Cc2cn[nH]c2C2CCCCC2)CCN1C1CCCC1 (stereo not drawn)	1.1	0.22
O=C(Cc1ccccc1[N+](=O)[O-])Nc1ccc2c(c1)OCO2	0.36	0.35
CC(C)(C)n1nnnc1CN(Cc1ccco1)Cc1cc2cc3c(cc2[nH]c1=O)OCO3	0.28	-0.92
CC(=O)N/C(=C/c1ccccc1)C(=O)N1CCCCC1	0.04	1.6
C=CCC1c2cccc(C(=O)OC)c2C(=O)N1c1ccccc1 (stereo not drawn)	0.2	-0.65
NC(=NCCCCCCN=C(N)/N=C(\N)Nc1ccc(Cl)cc1)/N=C(\N)Nc1ccc(Cl)cc1	7*!	.
Cc1nc(CCNC(=O)CC2C(=O)NCCN2CC(C)C)nc2c1CCC2 (stereo not drawn)	0.92	-0.59
O=C(NCc1ccncc1)/C(=N/O)c1ccccc1	0.27	-0.06
C=CCN=C1SC(C)C(=O)N1S(=O)(=O)c1ccccc1 (stereo not drawn)	0.04	-0.23
O=S(=O)(N/N=C\c1ccc2c(c1)OCO2)c1ccccc1	1.7	-0.26
CCOC(=O)N1CCN(C(=O)c2ccc(C)c(S(=O)(=O)Nc3ccccc3)c2)CC1	1	2
Cc1ccc(NS(=O)(=O)c2ccc(CCC(=O)O)cc2)cc1	0.71	-0.13
CCc1nnc(NC(=O)CCN2C(=O)c3ccccc3C2=O)s1	0.01	-0.1
O=c1[nH]cnc2ncc(-c3ccc(O)cc3)nc12	0.74	0.07
CCOC(=O)c1cnn(-c2ccc(NS(=O)(=O)c3ccc(Cl)cc3)cc2)c1C(F)(F)F	0.45	0.15
Cc1cc(NCCCN(C)C)n2nc(-c3cccs3)cc2n1	0.27	0.1
Cc1ccc(-c2nn(-c3ccccc3)cc2/C=C/C(=O)Nc2cccc(S(N)(=O)=O)c2)cc1	2.5	0
O=C(COc1ccc(F)cc1)Nc1nnc(C2CC2)s1	1.6	-0.38
Cc1cc(C)cc(C(=O)NC(CC(N)=O)c2ccc(N3CCN(c4ccccc4)CC3)c([N+](=O)[O-])c2)c1 (stereo not drawn)	0.67	-0.1
COc1ccc(CNC(=O)C(C)OC(=O)c2cccs2)cc1 (stereo not drawn)	0.41	1.5
CC(=O)c1cccc(OC(=O)c2ccc3c(=O)n4c(nc3c2)CCC4)c1	0.4	8.4
Cc1sc(NC(=O)CSc2nc(O)cc(=O)[nH]2)nc1-c1ccccc1	0.44	-2.4
Cc1ccc(CN2CCN(CC(=O)N/N=C/c3c[nH]c4ccccc34)CC2)cc1	0.21	-1.3
COc1ccc(N2C(=O)CC(NC3CC3)C2=O)cc1 (stereo not drawn)	0.43	-1.1
CCc1ccc(CN2CCCC(C(=O)N3CCCCC3)C2)cc1 (stereo not drawn)	1.6	0
CC(=O)N1c2ccc(S(=O)(=O)N(C)Cc3ccccc3)cc2CC1C (stereo not drawn)	1.1	-1.1
O=C(O)c1ccc(Cn2c(=S)[nH]c3cc(Cl)ccc3c2=O)cc1	1	-0.51
Cc1cccc(C)c1NC(=O)CCN1C(=O)C2C3CCC(C3)C2C1=O (stereo not drawn)	1	-1.1
Cc1nc2c(C#N)cnn2c2c1CCN(Cc1ccccc1)N2C	0.97	2.8
COc1ccc(N2CC(NC(=O)c3ccc4ccccc4c3)CC2=O)cc1OC (stereo not drawn)	0.25	0.5
Cc1cccc(Oc2ncnc3onc(C)c23)c1	0.34	1.4
CC1(C)C2CC[C@]3(C)C(CC=C4[C@@H]5C[C@](C)(CO)CC[C@]5(C(=O)O)CC[C@]43C)[C@@]2(C)CC[C@@H]1O (stereo partly drawn)	0.92	-1.8
Brc1ccc(-c2cn3c(n2)SCC3)cc1	0.02	-0.66
COCCn1c(C)cc(C(=O)COC(=O)c2ccc(Br)o2)c1C	0.2	0.08
Cn1nc(C(F)(F)F)c(-c2ccccc2)c1N	1.2	1.3
COc1ccccc1CCC(=O)OCC(=O)Nc1ccc(S(N)(=O)=O)cc1	0.86	3
Cc1ccc(S(=O)(=O)Cc2ccc(C(=O)N3CCC(C)CC3)cc2)cc1	2.5	-0.02
CCOc1ccccc1NC(=O)Nc1cc(OC)ccc1OC	1.1	1.3
Cc1cccc(/N=C/c2c(O)[nH]c3ccccc23)n1	0.73	0.06
Cc1sc2nc(SCC(=O)NCc3cccs3)[nH]c(=O)c2c1C	1.3	0.95
COc1ccccc1NC(=O)c1cc(S(=O)(=O)N2CCc3ccccc32)ccc1F	0.73	-0.22
CC(C)Cc1nn2c(N)c(/C=C3\C=Nc4ccccc43)c(=O)nc2s1	0.14	0.12
COc1ccc(CCN2C(=O)CSC2=Nc2ccc(C(C)C)cc2)cc1OC	0.04	1.3
COc1ccccc1N1CCN(C2CCCN(Cc3c(F)cccc3F)C2)CC1 (stereo not drawn)	0.87	1
Cc1nnsc1C(=O)N/N=C/c1ccccc1	0.27	-0.39

In the list so far, nine have an aryl thioether with sulfur outside any ring.
SMILES	KCNQ2 enhance	KCNQ2 enhance baseline
CCCn1c(SCCN2C(=O)c3ccccc3C2=O)n[nH]c1=O	0.47	-0.17
C=CCn1c(SCC(=O)Nc2ccccc2F)nnc1C(C)NC(=O)c1ccccc1F (stereo not drawn)	1.8	-0.62
O=C(O)C1CCN(C(=O)CSc2nc3ccccc3s2)CC1	0.83	0.16
Cc1nn(C(=O)c2cccnc2)c(C)c1Sc1ccccc1	0.57	-0.72
CCc1nc(SCC(=O)N2CCCCC2)c2c(=O)n(C)c(=O)n(C)c2n1	9.1*	-1.7*
NS(=O)(=O)c1ccc(CCNC(=O)CSc2nc3ccsc3c(=O)n2C2CC2)cc1	0.78	-0.02
Cc1cccc(CSc2nc(N)c(C#N)c(-c3cccs3)c2C#N)c1	0.27	-0.43
Cc1sc(NC(=O)CSc2nc(O)cc(=O)[nH]2)nc1-c1ccccc1	0.44	-2.4
Cc1sc2nc(SCC(=O)NCc3cccs3)[nH]c(=O)c2c1C	1.3	0.95

(further entries)
SMILES	KCNQ2 enhance	KCNQ2 enhance baseline
Cc1[nH]n(-c2ccccc2)c(=O)c1N=Nc1cccc([N+](=O)[O-])c1	3.7	-0.6
O=C(c1ccccc1)N1CCN(C(=S)NCc2ccco2)CC1	1.6	0.23
COc1ccc(S(=O)(=O)NC(C)C(=O)Nc2ccccc2)cc1Cl (stereo not drawn)	0.39	0.01
C=C1c2cc3c(cc2NC(=S)N1Cc1ccccc1)OCO3	0.17	-3.6
CCc1ccc(NC(=O)[C@H](C)NC(=O)C2CCN(C(=O)[C@@H](N)C(C)C)CC2)cc1	0.58	-0.07
COc1ccc(CN2CCNC(=O)C2CC(=O)N2CCCCO2)c(OC)c1 (stereo not drawn)	0.14	1.3
COCC(=O)Nc1nc2ccc(S(C)(=O)=O)cc2s1	1.7	0.62
CCOc1cc(/C=N/NC(=O)Cc2ccc(C(F)(F)F)cc2[N+](=O)[O-])ccc1O	0.69	-2.4
